HNF4A DNA FP: change in binding of human HNF4A to DNA, primary screen, biochemical, fluorescence polarization, FITC-DNA; Hepatocyte nuclear factor 4-alpha (Homo sapiens), P41235; 1 h; activity change, % at 10 µM; 360,000 tested, 0.3% active; AID 1224865, 2016; in the data active = activity change above about 30%, passing the limit was not always enough;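 note: controls were the assay level and a saturating level of protein; the project sought stronger binding though the title names inhibitors; some compounds called inactive have numbers as strong as hits; positive values seem to mean higher polarization but the record does not say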
UCH37 DUB inh: inhibitors of human UCH37 deubiquitinase, primary screen, biochemical, Ub-AMC cleavage, fluorescence | Ubiquitin carboxyl-terminal hydrolase isozyme L5 (Homo sapiens), Q9Y5K5 | purified proteasome/UCH37 | inhibition, % (concentration not given with the values) | 330,000 tested, 0.33% active;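 active = mean of two replicates above 20%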;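 note: 0% = compound-free wells with enzyme and 100% = wells lacking proteasome; stock transfer was 100 nL into about 20 µL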
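Material: Human UCH37 enzyme supplied as purified proteasome complex | Schedule: 30 min preincubation with enzyme, 25 min cleavage at room temperature | Detection: AMC fluorescence 355/460 nm | Measure: % inhibition of Ub-AMC cleavage fluorescence | Controls: Wells without proteasome as full block, compound-free enzyme plus substrate as uninhibited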
Beta2AR agonist: beta2AR agonists driving receptor internalization, primary screen, cell-based, FAP fluorogen, flow cytometry. 340,000 tested, 0.43% active. Am2.2-beta2AR cells; reference of the scale not given here. response, % (concentration not given with the values). Beta-2 adrenergic receptor (Homo sapiens), P07550;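 active = response above a set limit, near 3 SD of response in nonfluorescent compounds, cut at about 42% in these data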;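 note: stock transfer was 100 nL into about 11 µL; a reference agonist was the positive control; negative values mostly stem from fluorescent compounds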
LANA-H2B inh: blockers of LANA interaction with H2A/H2B – biochemical, FP readout, HTS, primary screen; Protein LANA1 (Human herpesvirus 8 type P (isolate GK18)), Q9QR71; cell-free LANA-H2A/H2B peptide, fluorescence polarization; inhibition, % (test concentration not listed); 320,000 tested, 0.6% active; AID 2629, 2010; in the data active = inhibition mostly above about 10%, no sharp cut-off; inactive = mostly below about 6.7%;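 note: stock transfer was 7.5 nL into about 10 µL; 0% = median of vehicle wells and 100% = median of positive control wells; one replicate is shown; the record names a cut of 25% in any replicate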
Target sequence (Q9QR71 whole entry, looked up): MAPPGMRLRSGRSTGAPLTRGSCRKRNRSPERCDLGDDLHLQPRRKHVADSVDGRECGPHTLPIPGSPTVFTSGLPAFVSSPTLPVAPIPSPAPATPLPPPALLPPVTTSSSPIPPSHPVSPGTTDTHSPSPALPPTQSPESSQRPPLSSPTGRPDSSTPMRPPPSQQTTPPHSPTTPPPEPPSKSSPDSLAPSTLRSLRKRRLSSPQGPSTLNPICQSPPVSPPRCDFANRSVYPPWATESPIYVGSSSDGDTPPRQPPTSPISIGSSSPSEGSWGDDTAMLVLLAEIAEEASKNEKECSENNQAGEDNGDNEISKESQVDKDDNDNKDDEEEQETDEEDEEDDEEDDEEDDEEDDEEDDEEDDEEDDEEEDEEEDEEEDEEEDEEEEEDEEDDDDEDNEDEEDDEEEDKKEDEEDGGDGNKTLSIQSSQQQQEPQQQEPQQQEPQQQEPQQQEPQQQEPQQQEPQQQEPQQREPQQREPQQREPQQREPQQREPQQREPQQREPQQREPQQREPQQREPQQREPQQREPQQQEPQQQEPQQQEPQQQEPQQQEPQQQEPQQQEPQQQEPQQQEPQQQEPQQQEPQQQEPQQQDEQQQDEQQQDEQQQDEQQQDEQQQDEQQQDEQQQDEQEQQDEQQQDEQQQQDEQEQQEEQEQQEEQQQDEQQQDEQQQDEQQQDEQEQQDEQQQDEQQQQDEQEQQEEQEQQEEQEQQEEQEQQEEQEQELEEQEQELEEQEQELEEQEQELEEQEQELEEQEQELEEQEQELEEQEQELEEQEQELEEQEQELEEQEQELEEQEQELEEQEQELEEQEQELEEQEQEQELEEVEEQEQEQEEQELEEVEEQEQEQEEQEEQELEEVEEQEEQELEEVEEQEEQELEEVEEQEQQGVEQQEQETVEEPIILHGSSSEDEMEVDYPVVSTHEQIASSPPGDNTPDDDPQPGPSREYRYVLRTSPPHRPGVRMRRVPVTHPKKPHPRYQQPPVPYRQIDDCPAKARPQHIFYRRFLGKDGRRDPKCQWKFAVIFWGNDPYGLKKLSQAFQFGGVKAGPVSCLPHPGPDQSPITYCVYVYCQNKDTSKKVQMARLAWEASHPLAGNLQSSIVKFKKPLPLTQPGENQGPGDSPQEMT
Ecoli growth: E. coli growth inhibition, primary screen, OD600; Escherichia coli growth, 23 h; stronger effect = lower value; OD600 absorbance (no concentration beside the values); 330,000 tested, 0.21% active; AID 1053175, 2014;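 active = OD600 absorbance below the run mean of sample wells minus 3.6 SD, in any replicate, cut at about 0.56 in these data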;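 note: stock transfer was 300 nL into about 60 µL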
A1 inh: caspase 3/7 activation in MEF A1-2A-BIM cells, primary screen, A1 inhibitor project, cell-based, luminescence, HTS; Caspase-Glo 3/7 luminescence, 3 h; percent of clofoctol response, vehicle zero; caspase activation, % (concentration not given with the values); 330,000 tested, 0.066% active; AID 2462, 2010;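 active = over half of replicate activation scores above 10%, or exactly half above 10 with the replicate mean above 10; inconclusive = replicate mean below 10 yet half the replicates above 10; inactive = over half of replicates below 10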;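 note: wells of about 30 µL received 50 nL stock; many hits fall short of the cut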
Vif TR-FRET: inhibitors of Vif binding to APOBEC3G peptide, primary screen, biochemical, TR-FRET, GST-Vif 1-94, biotin-A3G peptide, dose response retest (AID 1117319). TR-FRET GST-Vif / biotin-A3G peptide binding; higher % means a stronger effect; test concentration not given here; strong numbers were not always called active. inhibition, %; hits with a dose series show IC50 in µM. 260,000 tested, 0.57% active;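 active = above the screen mean plus three standard deviations and confirmed in dose response; inconclusive = results disagree or hit not tested in dose response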;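 note: Vif residues 1-94 fused to GST binding biotinylated APOBEC3G peptide 110-148; 0% = full assay without inhibitor and 100% = GST in place of GST-Vif; retest series ran down from 100 µM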
* = called active by the depositor; i = inactive; u = inconclusive; x = no result given; & = joins results of further samples.

SMILES	HNF4A DNA FP	UCH37 DUB inh	Beta2AR agonist	LANA-H2B inh	Ecoli growth	A1 inh	Vif TR-FRET
COc1ccc(NC(=O)c2cc(-c3cccs3)on2)c(OC)c1	0.4	-22	8	3.9	0.66	-0.2	x
C=CCOc1c(Cl)cc(CNn2cn[nH]c2=S)cc1OC	6.4	2.4	7	2.6	0.69	-1.1	-7%
NC(=O)c1c(NC(=O)C2COc3ccccc3O2)sc2c1CCN(Cc1ccccc1)C2 (stereo not drawn)	57	-46	3	-0.7	0.72	0.4	-7%
COc1ccc(NC(=O)c2sccc2C)cn1	-4.5	2.5	2	-1.6	0.68	-6.0	6%
CCOC(=O)Cc1cnc(NC(=O)CSc2nc(C)cc(C)n2)s1	0.0	2.9	-3	-1.9	0.66	0.3	-4%
COc1ccc(OC)c(C(C(=O)NC2CCCCC2)N(C(=O)c2snc(C(N)=O)c2N)c2ccccc2OC)c1 (stereo not drawn)	3.5	x	10	-5.3	x	-0.2	-62%
O=S(=O)(c1cccs1)N1CCC(Cc2ccccc2)CC1	-0.1	0.4	2	0.3	0.72	0.1	0%
O=C(CC1COc2ccccc2O1)NCCc1ccccc1 (stereo not drawn)	1.9	-1.3	-7	5.5	0.68	-0.3	-8%
COc1ccccc1N(CC(=O)NCCc1ccccc1)C(=O)CCC(=O)Nc1nccs1	3.0	0.9	0	4.2	0.62	-0.2	x
COc1ccc(-c2cc(C(F)(F)F)nc(SCC(=O)NCc3cccs3)n2)cc1OC	1.8	-328	-17	1.4	0.65	0.4	-2%
Cc1ccc(NC(=O)CCNC(=O)c2ccccc2)cc1F	-0.1	1.1	-3	-0.3	0.66	0.9	x
Cc1ccc(/C=N\n2c(-c3ccccc3)n[nH]c2=S)s1	-2.1	x	-4	-2.2	x	-0.3	11%
O=C(Nc1ccc2nn(-c3ccccc3)nc2c1)c1ccc2c(c1)OCCO2	0.3	-140	-7	-3.6	0.71	0.3	-9%
COCc1cc(=O)[nH]c(/N=C(\N)Nc2ccccc2C)n1	0.8	x	5	-1.0	x	0.0	-1%
CN(C(=O)c1cccc(C#N)c1)c1nnc(C2CCCO2)s1 (stereo not drawn)	1.9	-1.0	2	-1.6	0.68	-0.3	25%
COc1cc(C2Nc3ccc4ncccc4c3C3=C2C(=O)CCC3)cc(OC)c1O (stereo not drawn)	-2.0	7.7	-9	0.5	0.72	0.8	20%
O=C(Cc1ccccc1)NN1C(=O)C2C(C1=O)C1C=CC2C12CC2 (stereo not drawn)	-2.3	2.5	0	0.3	0.65	0.4	-10%
CSC1=C(C#N)C(c2cccc(Br)c2)CC(=O)N1 (stereo not drawn)	-1.5	3.0	7	-1.9	0.67	0.9	16%
CCC(C)NC(=O)c1ccc2c(c1)S(=O)(=O)c1ccccc1C2=O (stereo not drawn)	-1.1	5.2	7	-4.1	0.72	2.8	x
Cc1ccc(NC(=S)Nc2c(C)n(C)n(-c3ccccc3)c2=O)cc1	-0.7	6.0	4	1.2	0.71	0.4	x
O=S(=O)(N/N=C/c1ccc(Cl)cc1)c1ccc(Cc2ncc(C(F)(F)F)cc2Cl)s1	-3.1	x	1	-5.8	x	-4.2	27%
COc1ccc(S(=O)(=O)Nc2ccc(Cc3ccncc3)cc2)cc1C	0.6	0.1	-19	2.8	0.7	0.5	-1%
Cn1cc(/C=C2\SC(=S)N(NC(=O)c3ccccc3Cl)C2=O)c2ccccc21	82	8.0	0	-48	0.72	0.3	14%
CCCn1c2ccccc2c2cnn(CC(=O)NC3CCC(C)CC3)c(=O)c21 (stereo not drawn)	-6.3	-2.1	-6	-2.2	0.66	0.2	-4%
C/C(=C\C(=O)c1ccccc1)Nc1cccc(O)c1	-1.0	6.4	0	-2.0	0.71	-1.0	32%
CCOCCCNC(=O)C(NC(=O)c1ccccc1O)c1ccc(C)cc1 (stereo not drawn)	-1.3	-86	5	0.8	0.64	-1.1	-5%
Cc1ccc(CC2CC(=O)N(c3nc4ccccc4n3C)C2=O)cc1 (stereo not drawn)	0.2	1.8	-7	-3.2	0.78	0.0	u
Cc1ccc(S(=O)(=O)/N=c2\scc(C)n2C)cc1	2.5	x	0	-5.8	x	0.1	x
CC(C)N(C(=S)Nc1cccnc1)c1ccccc1	2.5	2.1	17	3.9	0.69	1.4	4%
COC(=O)/C(=C\C(=O)c1ccc([N+](=O)[O-])cc1)Nc1ccc(OC)cc1	-0.3	0.7	-5	2.7	0.65	0.5	x
COc1cccc(NC(=O)c2nn(C)cc2Br)c1	-1.7	4.9	-11	0.2	0.68	-5.0	x
Cc1nnc(SCC2=C(C(=O)O)N3C(=O)C(NC(=O)Cn4ncc(Cl)c4C)C3SC2)s1 (stereo not drawn)	-4.4	3.4	-4	-1.5	0.44*	-0.4	-12%
CCc1cccc(OCC(=O)Nc2ccc(S(=O)(=O)Nc3onc(C)c3C)cc2)c1	-1.5	2.0	4	-2.0	0.75	-0.7	7%
CCOc1ccc(N2CC(C(=O)Nc3nnc(SCCOC)s3)CC2=O)cc1 (stereo not drawn)	3.4	2.6	3	-1.9	0.67	0.5	x
CC(C)(C)[C@H]1COC(=O)[C@H](NC(=O)OCC2c3ccccc3-c3ccccc32)C/C=C\C[C@@H](CC(=O)N[C@@H](CO)Cc2ccccc2)C(=O)N1	1.3	0.5	-2	-4.7	x	0.7	x
O=C(COC(=O)CC1CCCC1)Nc1cccc(F)c1	-6.0	2.1	-6	2.7	0.62	-1.7	x
COc1ccccc1OCC(=O)NCC(c1cccs1)N1CCOCC1 (stereo not drawn)	1.5	1.2	7	0.2	0.73	0.3	x
CN1C(=O)/C(=C\c2ccco2)N=C1c1ccc(Cl)cc1Cl	-0.5	5.6	1	-0.3	0.65	0.7	u
CC(=O)c1cn(CC(=O)Nc2ccccc2)c2ccccc12	-1.8	0.2	-3	1.3	0.69	0.1	-3%
CC(=O)NCCNC(=O)c1ccc(Cn2c(=O)[nH]c3ccsc3c2=O)cc1	-4.3	1.5	-2	1.8	0.64	-0.7	-5%
CCc1nc2ccccc2n1CCC(=O)O	3.1	1.2	-12	3.9	0.7	0.3	3%
CCCN1CCc2c(sc(NC(=O)Cc3ccc(F)cc3)c2C(N)=O)C1	2.9	-0.9	1	-4.0	0.63	0.5	-4%
COc1cc(/C=C/c2ccccc2)cc(OC)c1	0.5	-9.7	4	x	0.69	x	-6%
Cc1cc(N)nc(SCC(=O)N2C(C)CCCC2C)n1 (stereo not drawn)	1.6	3.5	3	2.6	0.66	0.9	-4%
COc1ccccc1-c1coc2c(CN3CCCCC3C)c(O)ccc2c1=O (stereo not drawn)	-2.8	i	3	4.4	0.65	0.6	-4%
COc1ccccc1Sc1ccccc1/C=N/NC(N)=O	0.1	x	-2	7.0	x	0.6	-4%
COc1ccccc1Nc1nc(NCCC(C)C)nc(N)c1[N+](=O)[O-]	-2.8	3.2	7	-5.5	0.65	1.0	-7%
COCC1CCN(C(=O)c2cc(COc3cccc4cnccc34)on2)CC1	-3.5	-88	1	6.7	0.68	0.5	x
Cc1cc(C)nc(SCc2ccc(C(=O)N/N=C/c3cccc(O)c3O)cc2)n1	1.4	x	-3	-1.0	x	1.0	9%
Cc1cc(C)c(S(=O)(=O)c2ccccc2C(C)C)c(=O)[nH]1	-1.8	4.0	2	-1.4	0.7	1.2	0%
CSc1ccccc1NC(=O)CN(C)CC(=O)Nc1cc(C)ccc1C	4.1	0.8	1	-4.8	0.66	0.0	x
Cc1[nH]c(=O)[nH]c(=O)c1S(=O)(=O)N1CCN(c2cccc(Cl)c2)CC1	-0.2	0.1	8	2.7	0.73	0.1	5%&16%
COc1ccc(S(=O)(=O)N2CCCC(C(=O)N3CCOCC3)C2)cc1C (stereo not drawn)	-0.8	0.6	2	5.8	0.69	0.0	4%
Cc1ccsc1C(=O)OCC(=O)c1ccc[nH]1	2.2	-1.5	0	-7.0	0.69	-4.9	5%
O=C(N/C(=C/c1ccco1)C(=O)N1CCCCC1)c1cccs1	2.0	5.7	-27	-4.2	0.73	-0.4	22%
O=C(Nc1cccc(-c2nc3ncccc3o2)c1)c1cc2ccccc2o1	-8.9	4.4	3	5.6	0.74	0.1	-14%
COc1ccc(NC(=O)CN(C)C(=O)c2sc3ccccc3c2Cl)cc1	1.4	1.6	0	0.9	0.6	-0.7	1%
O=C(O)c1ccc(CNC(=O)c2ccc3c(c2)C(=O)N(Cc2cccnc2)C3=O)cc1	2.2	1.4	5	0.5	0.69	0.0	-2%
COc1ccc(Cl)cc1N1C(=O)C2CCCN2C1c1ccc(F)cc1 (stereo not drawn)	0.6	1.6	-5	0.0	0.71	-0.6	4%
CCOC(=O)C1=C(Nc2ccc(C)cc2)CC(C)(O)C(C(=O)OCC)C1c1ccccc1 (stereo not drawn)	5.2	-6.3	11	8.0	0.71	0.8	-2%

Overlap with the part before: 4 entries, followed by the next part.
SMILES	HNF4A DNA FP	UCH37 DUB inh	Beta2AR agonist	LANA-H2B inh	Ecoli growth	A1 inh	Vif TR-FRET
COc1ccc(NC(=O)CN(C)C(=O)c2sc3ccccc3c2Cl)cc1	1.4	1.6	0	0.9	0.6	-0.7	1%
O=C(O)c1ccc(CNC(=O)c2ccc3c(c2)C(=O)N(Cc2cccnc2)C3=O)cc1	2.2	1.4	5	0.5	0.69	0.0	-2%
COc1ccc(Cl)cc1N1C(=O)C2CCCN2C1c1ccc(F)cc1 (stereo not drawn)	0.6	1.6	-5	0.0	0.71	-0.6	4%
CCOC(=O)C1=C(Nc2ccc(C)cc2)CC(C)(O)C(C(=O)OCC)C1c1ccccc1 (stereo not drawn)	5.2	-6.3	11	8.0	0.71	0.8	-2%
O=c1c(-c2cccc([N+](=O)[O-])c2)[n+]([O-])c2ccccc2n1O	-0.7	5.7	-8	-2.5	0.68	-0.3	6%
Cc1cc(C)c(C)c(OCC(=O)O/N=C(\N)c2ccccn2)c1	-3.7	x	-2	-1.5	x	-0.3	-1%
COC(=O)CSc1nnc(-c2ccc(NS(=O)(=O)c3ccccc3)cc2)o1	-2.3	6.0	27	0.9	0.72	-0.2	23%
C=CCO/N=C/C1C(=O)CC(C)(C)CC1=O	0.7	x	-3	-4.0	x	-0.4	31%
O=C(O)c1cc(C(=O)O)c(-c2ccccc2)c(C(=O)O)c1	-0.3	4.0	3	-4.9	0.68	0.7	5%
CCN(CC)CCCNC(=O)Cn1cc2c(n1)CCC(C)C2 (stereo not drawn)	-1.4	3.9	0	-3.6	0.72	-0.4	3%
CCOC(=O)Cc1csc(NC(=O)c2cnc3scc(C)n3c2=O)n1	1.2	1.7	0	-2.7	0.68	0.5	x
COc1ccc(-c2cc(C(F)(F)F)n3nc(C(=O)NCc4ccco4)c(Cl)c3n2)cc1	2.0	-26	9	-3.2	0.7	-0.9	0%
CCOC(=O)C1C(C#N)=C(N)OC(C)=C1c1ccncc1 (stereo not drawn)	4.1	2.6	20	-2.6	0.74	0.0	6%
O=C(CCNC(=O)Cn1ccc2ccccc2c1=O)NCCN1CCc2ccccc2C1	2.6	0.9	-31	-1.1	0.73	-0.4	4%
N/C(=N\OC(=O)COc1ccccc1)c1ccncc1	-0.3	1.1	9	0.4	0.65	0.2	27%

Not a hit list; any-hit rate near 2.1%.
